Screening data as filed in PubChem.
BasE inh: BasE siderophore biosynthesis inhibition; 0.1% of 84,000 active; purified BasE, fluorescence polarization binding displacement; inhibition, % (test concentration not listed);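 active = both replicates above 25% with normal brightness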;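 note: 0% = negative plate control signal and 100% = positive plate control signal; stock transfer was 100 nL into about 30 µL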
KSHV LANA nucl: inhibitors of KSHV LANA binding to nucleosomes; FITC-LANA1-23 / chicken nucleosome fluorescence polarization; stronger effect = lower value; z-score (concentration not given with the values); 0.3% of 51,000 active; AID 720717;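 active = both repeat wells score below -2 in polarization z-score versus plate sample wells, excluding overly bright wells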;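 note: 100 nL library stock added to about 30 µL; numbers are from one replicate; some results filed as inactive read as strong as hits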
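Test system: purified chicken nucleosomes with FITC-labelled LANA N-terminal peptide (1-23); Input: 240 nM purified chicken nucleosomes (480 nM peptide binding sites), final; Medium: TEN-BT buffer, pH 7.5; Timing: 10–45 min, room temperature; Technique: fluorescence polarization, 480 nm excitation, 535 nm parallel and perpendicular emission; Replication: duplicates.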
The depositor's hits bear a star; & = joins results of further samples. Only part of the results is shown; count on the stated rates, not on these rows.

How did O=C(c1ccc(F)cc1)N1CCCCC(N2CCN(S(=O)(=O)c3ccccc3)CC2)C1=O (configuration not stated) do in these assays?
BasE inh: 2.4

Results for O=C(O)c1cc2cc(Cl)ccc2oc1=O ?
BasE inh: -3.8

How did COc1ccccc1Cn1c(=S)[nH]c2cc(C(=O)NCc3ccco3)ccc2c1=O do in these assays?
BasE inh: -1.3; KSHV LANA nucl: -0.224

Results for CCCCN(Cc1ccccc1)Cc1ccco1 ?
BasE inh: -0.7; KSHV LANA nucl: -0.442

Results for CC(N=C1NS(=O)(=O)c2ccccc21)C(=O)NCCc1ccc2c(c1)OCCO2 (configuration not stated) ?
BasE inh: -0.2

How did COC(=O)N/N=C(/c1ccccc1)C1CCCCC1 do in these assays?
BasE inh: 3.6

How did Cc1cc(=O)oc2cc3occ(C(C)(C)C)c3cc12 do in these assays?
BasE inh: -0.3; KSHV LANA nucl: 1.35

Results for Cc1cc(C(=O)NCC2CCCO2)c2c(C)nn(-c3ccccc3Cl)c2n1 (configuration not stated) ?
BasE inh: -1.3; KSHV LANA nucl: -0.944

Results for Cc1c(Cl)cccc1NC(=O)c1ccc(N2C(=O)c3ccccc3C2=O)cc1 ?
BasE inh: 0.7

Results for Cc1ccc(S(=O)(=O)N2CCCC2C(=O)OCc2nc3ccsc3c(=O)[nH]2)cc1 (configuration not stated) ?
BasE inh: -2.0

Results for O=C(CCOc1ccccc1)Nc1ccccc1N1CCCC1 ?
BasE inh: -0.2

How did COc1ccccc1N(Cc1ccccc1O)C(=O)COc1ccccc1 do in these assays?
BasE inh: -0.8

Results for COc1ccc2cc(CN(CC3COCCO3)S(=O)(=O)c3c(C)cc(C)cc3C)c(=O)[nH]c2c1 (configuration not stated) ?
BasE inh: -1.4; KSHV LANA nucl: 0.27

Results for CNc1nc(NC(C)(C)C)nc(OCC(F)(F)F)n1 ?
BasE inh: -2.9; KSHV LANA nucl: 2.31

Results for Cc1nn(-c2ccccc2)c(C)c1C(=O)NCC(c1cccs1)N(C)C (configuration not stated) ?
BasE inh: -1.5

How did CS(=O)(=O)NN=C1CCCCC1 do in these assays?
BasE inh: 0.6; KSHV LANA nucl: -1.02

How did Cc1cc(NC(=O)COC(=O)C2=NNC(=O)CC2)no1 do in these assays?
BasE inh: 3.1

Results for COc1ccc(C2SCCN2S(C)(=O)=O)cc1OC (configuration not stated) ?
BasE inh: -0.9

What do the screens show for `O=C1CC(NNc2ccccc2)C(=O)N1c1cccc(Cl)c1` (configuration not stated)?
BasE inh: 1.1; KSHV LANA nucl: 0.429

How did CCC1(C)CC(/C=N/O)CCO1 (configuration not stated) do in these assays?
BasE inh: 2.5; KSHV LANA nucl: -1.29

Retrieved by structure from the list above:
How did CCC1(C)CC(/C=N/O)CCO1 (configuration not stated) do in these assays?
BasE inh: 2.5; KSHV LANA nucl: -1.29

Results for CNc1nc(NC(C)(C)C)nc(OCC(F)(F)F)n1 ?
BasE inh: -2.9; KSHV LANA nucl: 2.31

How did CS(=O)(=O)NN=C1CCCCC1 do in these assays?
BasE inh: 0.6; KSHV LANA nucl: -1.02

How did COc1ccccc1N(Cc1ccccc1O)C(=O)COc1ccccc1 do in these assays?
BasE inh: -0.8

Results for Cc1nn(-c2ccccc2)c(C)c1C(=O)NCC(c1cccs1)N(C)C (configuration not stated) ?
BasE inh: -1.5

Results for COc1ccc2cc(CN(CC3COCCO3)S(=O)(=O)c3c(C)cc(C)cc3C)c(=O)[nH]c2c1 (configuration not stated) ?
BasE inh: -1.4; KSHV LANA nucl: 0.27

What do the screens show for `O=C1CC(NNc2ccccc2)C(=O)N1c1cccc(Cl)c1` (configuration not stated)?
BasE inh: 1.1; KSHV LANA nucl: 0.429

(cont.)
What do the screens show for `N#Cc1cccc(OCc2ccccc2F)c1`?
BasE inh: -2.6; KSHV LANA nucl: -0.15

How did Cc1ccc2c(c1)c1c(n2CCN(Cc2ccccc2)Cc2ccccc2)C(=O)CCC1 do in these assays?
BasE inh: 1.6

How did N#Cc1ccsc1NC(=O)CN1CCc2ccccc2C1 do in these assays?
BasE inh: -1.3

What do the screens show for `Cc1cc(NC(=O)NC2CCN(Cc3ccccc3)CC2)c(C(F)(F)F)o1`?
BasE inh: 0.2; KSHV LANA nucl: 0.185

What do the screens show for `CC(OC(=O)c1cccs1)C(=O)N1CCc2ccccc21` (configuration not stated)?
BasE inh: -3.9

Results for CCCn1c(SCc2csc(CC(=O)Nc3ccccc3C)n2)n[nH]c1=O ?
BasE inh: 2.1

Results for O=C1c2cccc3cccc(c23)C(=O)N1NCCO ?
BasE inh: 2.8

What do the screens show for `C1=C(c2ccccc2)Nc2ncnn2C1c1ccc2c(c1)OCO2` (configuration not stated)?
BasE inh: -0.4; KSHV LANA nucl: -0.489

Results for O=C(CC1=NS(=O)(=O)c2ccccc2N1)NCCC1=CCCCC1 ?
BasE inh: -0.2; KSHV LANA nucl: -1.36

What do the screens show for `CC(C)(O)C(C)(C)CCO`?
BasE inh: -1.9

Results for Cc1cc(CNC(=O)CSc2nnc3ccccn23)cc(C)c1O ?
BasE inh: -4.5

Results for N#CC(C#N)=C1CCCN1CC(=O)c1ccccc1 ?
BasE inh: 2.3; KSHV LANA nucl: 0.386

What do the screens show for `CCn1c2ccccc2c2cc(/C=N/NC(=O)c3ccncc3)ccc21`?
BasE inh: 1.5; KSHV LANA nucl: 1.37

What do the screens show for `Cn1c(-c2ccccc2)cnc1N`?
BasE inh: -2.0; KSHV LANA nucl: -0.107

What do the screens show for `CC(C)(C)c1ccc(-c2nnc(-c3ccc(N4CCOCC4)cc3)o2)cc1`?
BasE inh: -1.4; KSHV LANA nucl: 1.89

What do the screens show for `Cc1oc2ncn3c(C)nnc3c2c1C(=O)NC1CC1`?
BasE inh: 0.7; KSHV LANA nucl: -0.469

What do the screens show for `O=C1NC(c2ccc(F)cc2)(C(F)(F)F)C(=O)N1Cc1ccco1` (configuration not stated)?
BasE inh: 1.6; KSHV LANA nucl: -0.98

What do the screens show for `CCn1ncc(/C=N/O)c1C`?
BasE inh: -3.9

How did O=C1C2C3C=CC(C3)C2C(=O)N1/N=C/c1ccc(O)c(O)c1 (configuration not stated) do in these assays?
BasE inh: 1.6; KSHV LANA nucl: -1.17

What do the screens show for `O=C(NCC1CCCO1)c1cnc(N2CCCC2)nc1` (configuration not stated)?
BasE inh: 2.3; KSHV LANA nucl: -0.8

How did COC(=O)c1c(C)oc2ccc(OCC(=O)OC(C)(C)C)cc12 do in these assays?
BasE inh: -0.5; KSHV LANA nucl: -0.994

What do the screens show for `CCOC(=O)c1ccccc1OC(=O)c1c(F)c(F)c(F)c(F)c1F`?
BasE inh: -2.1; KSHV LANA nucl: 0.63

What do the screens show for `Cc1cc(N2CCN(C)CC2)nc(SC(C(=O)O)c2ccccc2)n1` (configuration not stated)?
BasE inh: -0.2

What do the screens show for `CCCCn1c(COc2ccc(Cl)c(C)c2)nc2cc(S(N)(=O)=O)ccc21`?
BasE inh: -2.1

Results for FC(F)(F)c1nnc2c3ccccc3c(Cl)nn12 ?
BasE inh: -0.7; KSHV LANA nucl: 0.583

Results for CCn1c2ccccc2c2cc(CNCCc3ccc(Cl)cc3)ccc21 ?
BasE inh: -2.7

What do the screens show for `CCCCOC(=O)Sc1nc2ccccc2o1`?
BasE inh: 6.0; KSHV LANA nucl: -0.676

How did COc1ccc(CCN2C(=O)/C(=C/C3CC=CCC3)SC2=S)cc1OC (configuration not stated) do in these assays?
BasE inh: -0.7

How did CSc1cccc(-n2c(C)cc(C(N)=O)c2C)c1 do in these assays?
BasE inh: -2.3

What do the screens show for `CCN(CC)c1ccc(-n2cccc2)cc1`?
BasE inh: -1.4

Filtered by structure, the compounds so far containing a COOH group
Results for O=C(O)c1cc2cc(Cl)ccc2oc1=O ?
BasE inh: -3.8

What do the screens show for `Cc1cc(N2CCN(C)CC2)nc(SC(C(=O)O)c2ccccc2)n1` (configuration not stated)?
BasE inh: -0.2

The list goes on:
What do the screens show for `O=C(NCc1ccco1)C1CC(c2ccccc2O)=NO1` (configuration not stated)?
BasE inh: 3.2; KSHV LANA nucl: -1.2

How did N#Cc1cnc(N(Cc2ccccc2)Cc2ccccc2)nc1N do in these assays?
KSHV LANA nucl: -0.01

Results for CS(=O)(=O)N1CCCC(C(=O)N2CCc3ccccc3C2)C1 (configuration not stated) ?
BasE inh: 1.7; KSHV LANA nucl: -1.45

Results for On1ccccc1=S ?
BasE inh: -0.2

Results for CCOC(=O)C1=NN(c2ccccc2)C2c3cc(OC)c(OC)cc3CCN12 (configuration not stated) ?
BasE inh: 0.1

What do the screens show for `CCCCCC(=O)N1CC(C)OC(C)C1` (configuration not stated)?
BasE inh: -0.2; KSHV LANA nucl: 1.24

Results for O=C(c1cnc2c(c1)c(=O)nc1ccccn12)c1ccccc1O ?
BasE inh: 1.4

Results for CCCNc1ncnc2c1cnn2-c1ccccc1 ?
BasE inh: -0.6; KSHV LANA nucl: -0.473

How did COc1ccc(NC(=O)COC(=O)CC2Sc3ccccc3NC2=O)cc1 (configuration not stated) do in these assays?
BasE inh: -1.1

What do the screens show for `COc1cc(C(=O)N2CCN(Cc3ccccc3C(F)(F)F)CC2)cc(OC)c1OC`?
BasE inh: 0.5; KSHV LANA nucl: -1.25

Results for Cc1c(-c2ccccc2)[n+](=O)c(-c2ccc(Br)cc2)c(C)n1[O-] ?
BasE inh: 1.6

Results for O=C(Cn1nnc(-c2cccc(Cl)c2)n1)N1N=C(c2cccs2)CC1c1cccs1 (configuration not stated) ?
BasE inh: -1.0

How did CCc1ccccc1NC(=O)CSc1nc2ccccc2n1CC(=O)N(C)C do in these assays?
BasE inh: -0.6; KSHV LANA nucl: -0.0765

How did CNC(=S)NNS(=O)(=O)c1ccc(C)cc1 do in these assays?
BasE inh: -0.2; KSHV LANA nucl: -0.111

Results for Cc1onc(-c2ccccc2)c1-c1csc(CS(=O)(=O)C(C)(C)C)n1 ?
BasE inh: 1.2; KSHV LANA nucl: 0.214

Results for Cc1noc(C)c1C(=O)OC(C)C(=O)c1ccc(C(C)(C)C)cc1 (configuration not stated) ?
BasE inh: 3.1

What do the screens show for `Cc1cc(NC(=O)CC(C)(C)C)nc2c1c(=O)oc1ccccc12`?
BasE inh: -3.0; KSHV LANA nucl: 0.189

How did CC1=C(C#N)C(c2ccc(OCc3ccccc3)cc2)C(C#N)=C(C)N1 do in these assays?
BasE inh: -6.2; KSHV LANA nucl: -0.025

Results for Cc1ccc(C)c(S(=O)(=O)Nc2ccccc2C(=O)OCC(=O)c2cc(C)n(Cc3ccco3)c2C)c1 ?
BasE inh: 1.1

Results for O=C(CSc1ncn(-c2ccccc2)n1)NCC1CCCO1 (configuration not stated) ?
BasE inh: 0.6; KSHV LANA nucl: 0.231

What do the screens show for `Cc1nc(NCCc2ccccc2)sc1C(=O)N(C)C`?
BasE inh: -4.0

How did COC(=O)C1=C(C)NC2=C(C(=O)c3ccccc32)C1c1ccc(OC)cc1 (configuration not stated) do in these assays?
BasE inh: 0.9

What do the screens show for `COc1ccccc1NC(=O)COc1ccc(/C=N/n2cnnc2)cc1OC`?
BasE inh: -2.2; KSHV LANA nucl: 0.262

How did CC1CC(=O)Nc2ccccc2N1C(=O)CSc1ccc2c(c1)OCCCO2 (configuration not stated) do in these assays?
BasE inh: -0.5

What do the screens show for `COc1cccc(CNCC2CCCO2)c1OCC(=O)NC(C)(C)C` (configuration not stated)?
BasE inh: 0.3; KSHV LANA nucl: -1.27

How did CCn1cc(C(=O)NCCC(C)C)c(=O)c2cc(S(=O)(=O)N(C)C)ccc21 do in these assays?
BasE inh: -1.3; KSHV LANA nucl: 0.256

What do the screens show for `COC(=O)Nc1nc2ccc(C(=O)c3cccs3)cc2[nH]1`?
BasE inh: 3.4&-0.8&-0.5; KSHV LANA nucl: 0.24&-0.787&-0.171

Results for CCN(Cc1nc2cc(OC)c(OC)cc2c(=O)[nH]1)C(=O)NC(C)(C)C ?
BasE inh: 1.3

Results for Cc1nc(NC2CCN(CC(=O)Nc3ccc4c(c3)OCCO4)CC2)[nH]c(=O)c1C ?
BasE inh: 0.9; KSHV LANA nucl: -0.0895

How did CCn1c(SCc2ccccc2)nnc1C1CCCCC1 do in these assays?
BasE inh: -1.1; KSHV LANA nucl: 0.998

How did N#Cc1cc(C#N)c(SCc2cc3c(cc2Br)OCCO3)nc1N do in these assays?
BasE inh: -7.1

How did CCCN1CCC(NC(=O)c2cccc(Oc3ccccc3)c2)CC1 do in these assays?
BasE inh: -2.0; KSHV LANA nucl: 0.793

Results for O=C1C=CC(=O)N1c1ccc(N2CCCCC2)cc1 ?
BasE inh: -0.1; KSHV LANA nucl: 0.803

What do the screens show for `CN(C)S(=O)(=O)c1ccc2nnn(OCc3ccccc3)c2c1`?
BasE inh: -1.2

How did Cn1c(SCC(=O)c2ccc(O)cc2O)nnc1C(F)(F)F do in these assays?
BasE inh: 0.3

What do the screens show for `COc1cc(C(O)c2cc(C(F)(F)F)cc(C(F)(F)F)c2)cc(OC)c1OC` (configuration not stated)?
BasE inh: 3.9

Results for OCCNC(=S)NC12CC3CC(CC(C3)C1)C2 ?
BasE inh: -1.7

Of the compounds above, 2 have bromine.
Results for Cc1c(-c2ccccc2)[n+](=O)c(-c2ccc(Br)cc2)c(C)n1[O-] ?
BasE inh: 1.6

How did N#Cc1cc(C#N)c(SCc2cc3c(cc2Br)OCCO3)nc1N do in these assays?
BasE inh: -7.1
